eIF4H inh: inhibitors of RNA binding by human eIF4H; 290,000 compounds, 0.94% hits; Q15056; eIF4H fluorescence polarization binding assay; inhibition, % at 35 µM;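 active means 50% or more with normal probe brightness, or confirmed in later tests; inconclusive means above 50% with abnormal brightness, or retests that disagree; inactive means below 50% or failed in later tests; about a fifth of its hits are not listed in these tables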;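 further: calls also rest on retests at 20 µM and on dose response follow-up; 0% = protein and probe with vehicle and 100% = probe without protein; strong numbers were not always called active; many hits fall short of the cut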
CSC inhib: blocks cancer stem cells. cancer stem cell-like cells viability, luminescence. inhibition, % at 7.5 µM. 300,000 compounds, 1.1% hits;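 active means mean at 75% or more and at least half the replicates too; inconclusive means mean and replicates disagree; tested in HMLE shEcad cells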;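 further: 0% = median of negative and 100% = median of positive control wells; the first replicate is given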
Rce1 inhib: inhibitors of yeast Ras-converting enzyme. 290,000 compounds, 0.27% hits. calls only. yeast membranes, quenched prenylated peptide cleavage fluorescence. Q03530;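 active means fall in fluorescence gain of 50% or more versus controls, with final raw signal at or below 3038400; inconclusive means same 50% fall but final raw signal above 3038400; inactive means fall in fluorescence gain under 50%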;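 further: plate controls were neutral control wells for no effect and wells lacking membranes for full effect; tested at 10 µM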
Target sequence (Q03530 whole entry, looked up): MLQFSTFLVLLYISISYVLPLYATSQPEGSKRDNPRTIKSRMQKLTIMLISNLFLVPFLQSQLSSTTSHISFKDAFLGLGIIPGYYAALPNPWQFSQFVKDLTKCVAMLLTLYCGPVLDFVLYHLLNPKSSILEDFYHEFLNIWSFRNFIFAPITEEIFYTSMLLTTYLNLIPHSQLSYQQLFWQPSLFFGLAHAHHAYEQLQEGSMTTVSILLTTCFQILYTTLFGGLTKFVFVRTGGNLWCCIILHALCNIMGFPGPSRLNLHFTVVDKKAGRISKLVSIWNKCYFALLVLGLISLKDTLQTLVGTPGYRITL
MT1-MMP act inh: MT1-MMP (human) activation inhibition | HT1080 RFP-PRO-GFP cells, GFP/RFP ratio fluorescence, overnight; percent of plate control window, DMSO zero | P50281 | 360,000 compounds, 0.061% hits | GFP/RFP ratio change, % at 20 µM;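 active means GFP/RFP ratio change of at least 30% with cell ATP level not reduced by more than half and red fluorescence within 50% of control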; further: strong numbers were not always called active
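Material: RFP-PRO-GFP reporter HT1080 cells. Dosing: single-point 20 µM compound, 1% DMSO. Controls: DMSO and RFP-L50D-GFP cell wells. Timing: cells overnight before dosing, compound overnight, 37 °C, 5% CO2. Measure: GFP/RFP fluorescence ratio.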
Env fusion inh: blocks HIV Env-driven cell-cell fusion; AID 651610; inhibition, % at 12.3 µM; 360,000 compounds, 1.1% hits; HeLa-JRFL Env/CEM21 cell fusion, luciferase;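 active means mean replicate inhibition score of at least 50 and every replicate individually at or above 50; inconclusive means only one of the two criteria met; inactive means mean below 50 and not all replicates reaching 50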;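 further: 0% = plate neutral controls and 100% = maraviroc near 300 nM; one replicate is shown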
PABP polyA inh: PABP-poly(A) binding inhibition. P11940. PABP-poly(A) RNA binding, fluorescence polarization. inhibition, % at 35 µM. 290,000 compounds, 1% hits;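 active means 50% or more with normal probe brightness, or confirmed in later tests; inconclusive means above 50% with abnormal brightness, or retests that disagree; inactive means below 50% or failed in later tests; about a fifth of its hits are not listed in these tables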;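 further: calls also rest on retests at 20 µM and on dose response follow-up; controls were probe without protein and protein plus probe with vehicle; some compounds called inactive have numbers as strong as hits; many hits fall short of the cut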
Target sequence (P11940 whole entry, looked up): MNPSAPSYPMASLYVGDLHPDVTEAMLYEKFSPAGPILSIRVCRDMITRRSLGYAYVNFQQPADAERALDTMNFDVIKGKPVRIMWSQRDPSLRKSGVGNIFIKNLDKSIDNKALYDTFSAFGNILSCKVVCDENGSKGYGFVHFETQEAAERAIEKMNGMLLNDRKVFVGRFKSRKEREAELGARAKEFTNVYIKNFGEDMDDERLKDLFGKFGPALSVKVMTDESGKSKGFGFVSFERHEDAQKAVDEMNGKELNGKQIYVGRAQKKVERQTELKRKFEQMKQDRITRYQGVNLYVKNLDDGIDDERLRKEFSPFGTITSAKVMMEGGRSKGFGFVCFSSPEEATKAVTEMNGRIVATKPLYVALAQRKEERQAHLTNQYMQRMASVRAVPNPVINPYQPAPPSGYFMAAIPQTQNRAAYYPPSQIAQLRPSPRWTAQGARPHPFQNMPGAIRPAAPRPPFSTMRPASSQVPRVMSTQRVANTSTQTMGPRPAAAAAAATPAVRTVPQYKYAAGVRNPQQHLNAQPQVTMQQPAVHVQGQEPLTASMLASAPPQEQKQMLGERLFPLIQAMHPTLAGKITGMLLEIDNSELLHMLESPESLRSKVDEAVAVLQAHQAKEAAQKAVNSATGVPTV
UUG fidelity: yeast start codon fidelity modulation; S. cerevisiae UUG-firefly luciferase reporter, luminescence/redox ratio; 350,000 compounds, 0.13% hits; activity score, % at 18.7 µM;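 active means replicate mean at a twofold rise or more, about +100% in these data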;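 further: firefly luciferase made from a UUG start codon reports start codon fidelity; reporter light over untreated wells divided by growth signal over untreated wells; some hits fall short of that in this replicate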
eIF4H inh retest: also measured in eIF4H inh; calls as there; inhibition, %; compound at 20 µM; confirmation average;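 mean of two retest wells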
PABP polyA inh retest: also measured in PABP polyA inh; calls as there; inhibition, %; compound at 20 µM; confirmation repeats;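 mean of two retest wells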
MT1-MMP act inh RFP: further read-out of MT1-MMP act inh, marked with its call; RFP signal change, %; measured here: RFP expression control read;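 0 = vehicle wells; hits needed this value within 50% of zero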
* marks the source's active call; other numbers are inactive results; i = inactive; ? = inconclusive; . = not tested or not shown; & = joins results of further samples.

SMILES	eIF4H inh	CSC inhib	Rce1 inhib	MT1-MMP act inh	MT1-MMP act inh RFP	Env fusion inh	PABP polyA inh	UUG fidelity	others
CC(=O)N1CCN(C(=O)CCc2c[nH]c3ccccc23)CC1	3	10	i	1	3	-28	15	-10
CC(C)(C)OC(=O)N1CCOCCOCCN(C(=O)OC(C)(C)C)CCOCC1	-1	-5	i	-7	-9	20	3	-8
O=C(NCc1ccccn1)c1ccc(Cl)cc1Cl	-1	-2	i	-2	-10	.	-11	.
Cc1cccc(C)c1NC(=O)C(=O)NCCCN1CCOCC1	-2	-13	i	1	2	1	12	.
CN(C)S(=O)(=O)c1cc(NC(=O)CN2CCc3ccccc32)ccc1Cl	?	.	i	-1	2	2	3	.
NC(N)=Nc1nc2cc([N+](=O)[O-])ccc2o1	19	-8	i	-3	-3	-7	25	.
CCN1/C(=C/C(=S)Nc2ccccc2)Sc2ccccc21	-10	-5	i	4	-19	1	3	.
COc1ccc(Br)c(Cn2c(C)c(C(=O)NCc3ccc4c(c3)OCCO4)sc2=O)c1	.	.	.	4	-10	25	.	-8
COc1ccc(/C=N/n2c(-c3n[nH]c4c3CCC4)n[nH]c2=S)c(OC)c1OC	0	-12	i	0	4	11	2	.
COC(=O)[C@@]1(Cc2ccccc2)[C@H]2C(=O)N(C)C(=O)[C@H]2[C@H]2CN=C(SCc3ccc(Cl)cc3)N21	.	.	.	-7	-5	-71	.	-1
Cc1cc(Br)ccc1NC(=S)N1CCOCC1	-7	-10	i	3	1	8	-8	-8
Cc1cc(NC(=O)c2cnn3cccnc23)n(-c2ccccc2)n1	-10	-2	i	1	1	?	3	5
CN=C(C[N+](=O)[O-])NCCSCc1ccc(CN(C)C)o1	.	.	.	0	4	-32	.	-15
CN1C(=O)c2c(sc3c2CCCC3)NC1c1ccccc1O (stereo unspecified)	7	-23	i	.	.	.	13	.
CSc1ccc(C2N=C(c3ccccc3)NO2)cc1 (stereo unspecified)	0	4	i	-13	-3	.	-17	-9
CC1CCCCC1NC(=O)Cn1c(=O)oc2cc(S(=O)(=O)N3CCCC3)ccc21 (stereo unspecified)	-5	6	i	-6	-2	-15	-10	-24
S=C(NCCSCc1ccccc1Cl)Nc1ccccc1	-8	11	i	-2	-8	.	-12	-30
CCCNC(=O)c1cccc(Cn2cc(Br)c([N+](=O)[O-])n2)c1	0	-3	i	-1	1	.	-3	.
O=C(NCCc1ccccc1)C(c1ccccc1)N(C(=O)c1csnn1)C1CC1 (stereo unspecified)	-5	-6	i	-2	1	-4	5	.
CCOc1cc(C(=O)OCC(=O)Nc2cc(C)on2)cc(OCC)c1OCC	-7	-6	i	0	1	6	-7	-16
Cc1cccc(CN2CCN(C(C)C(=O)NC(C)c3ccccc3)CC2)c1 (stereo unspecified)	3	1	i	-1	0	-10	5	-12
O=C(COC(=O)c1c[nH]c2ccccc12)NCc1ccccc1	.	.	.	-2	2	4	.	-34
COC(=O)c1ccccc1NC(=O)c1cnn2c(C(F)F)cc(C3CC3)nc12	4	11	i	1	4	.	11	-8
CCOC(=O)c1nnn(-c2nonc2-n2cccc2)c1CN1CCC(C)CC1	2	-3	i	-22	-18	.	-3	-5
Cc1cc(N/N=C2\CC(C)CC(C)(C)C2)nc2ccccc12 (stereo unspecified)	-9	26	i	-3	6	-65	-7	.
COc1cccc(NC(=S)N2CCc3cc(OC)c(OC)cc3C2)c1	-4	-5	i	0	-1	-213	-8	.
COC(=O)Cc1ccc(NC(=S)NCCSc2ccc(C)cc2)cc1	30	-40	i	5	-9	24	-14	.
CCn1c(O)c(/C=C/C=C/C=Nc2ccccc2)sc1=S	10	-4	i	1	8	4	8	.
CCN(CC)C(NC(=O)Cc1ccccc1)C(Cl)(Cl)Cl (stereo unspecified)	-9	.	i	-1	3	-206	-6	-10
CCOC(=O)c1[nH]c(=O)[nH]c1COC(=O)c1cc2ccccc2o1	4	-8	i	2	3	.	42	18
CCOC(=O)c1c(C)[nH]c(C(=O)COC(=O)/C=C/c2cccc(OC)c2OC)c1C	-17	-12	i	-3	-1	34	-20	4
O=C(COC(=O)CNC(=O)c1ccccc1)Nc1ccc(F)c([N+](=O)[O-])c1	10	-8	i	0	0	-15	-8	.
COc1ccc(OCc2nc(N)nc(Nc3ccc(C)cc3)n2)cc1	1	20	i	-1	0	-84	18	-49
O=C(CS)Nc1ccc2ccccc2c1	6	-5	i	-5	1	-9	10	-9
CC1(C(=O)NCCc2c[nH]c3ccccc23)C=CCN1C(=O)c1ccccc1 (stereo unspecified)	5	-1	i	-6	2	1	8	-10
CCCCN(C(=O)NC(=O)C1=C(N2CCOCC2)/C(=C/c2ccccc2)CC1)S(C)(=O)=O	-2	-2	i	-3	2	.	-3	3
Cc1cc(N2CCN(c3ccccc3Cl)CC2)n2cc(-c3ccccc3)nc2n1	5	0	i	4	-4	-30	7	-2
CCOC(=O)c1c(C)[nH]c(C(=O)COC(=O)c2cnc(C)cn2)c1C	-3	-8	i	-5	0	-48	4	-7
Cc1csc(NC(=O)CSc2nnnn2C)n1	-12	-9	i	0	2	-70	-3	.
O=C1CCC(=O)N1CC(=O)N(c1ccccc1)c1ccccc1	6	-8	i	-2	2	6	4	.
O=C(CN1C(=O)c2cccnc2Oc2ccc(Cl)cc21)NCCC1=CCCCC1	.	-19	i	0	-2	-8	.	-5
O=C(Nc1ccc(F)cc1)C1CCC(CNc2c(N3CCCCC3)c(=O)c2=O)CC1 (stereo unspecified)	-3	-3	i	4	1	14	2	-9
CCNc1nc(NC(C)C)nc(ON=C(C)C)n1	-3	-2	i	.	.	.	3	.
Cc1c(C(=O)OCC(=O)c2ccc3c(c2)OCCO3)oc2ccccc12	-3	4	i	-5	-3	-51	7	-5
CCOC(=O)N1CCC(NC(=O)Cn2c3c(c(-c4ccccc4Cl)cc2=O)CCC3)CC1	-3	-16	i	1	-10	?	-4	0
CC(=O)N(C)c1ccc(OCC(O)Cn2c(C)nc3ccccc32)cc1 (stereo unspecified)	-4	-12	i	-6	-25	-11	27	.
O=C(Cc1ccc(Br)cc1)NNC(=O)Nc1ccc(Cl)cc1	6	4	i	0	4	-32	-7	-20
C#CCOCCOCCOCCNc1nc(N2CCN(C(=O)[C@H]([C@@H](C)CC)n3cc(CCC(=O)O)nn3)CC2)nc(N2CCN(C(=O)[C@H](CCCCN)n3cc(CCCC)nn3)CC2)n1	.	.	.	0	3	-39	.	35
Cn1cc(CNC(=O)C2CCC(=O)N(Cc3ccccc3F)C2)cn1 (stereo unspecified)	-4	4	i	1	2	13	0	-17
CN1CCN(c2cc(=O)n(-c3ccc(Cl)cc3)c(=O)[nH]2)CC1	2	-5	i	1	3	-15	7	-13
Cc1ccc(OCCOCCN2CCCC2)c(Br)c1	-4	24	i	1	0	15	5	-11
COc1cc(C(C)=O)ccc1Oc1cnccn1	-5	-4	i	3	5	14	-18	.
O=C(CSc1nc2c([nH]c3ccccc32)c(=O)n1-c1ccc(F)cc1)NCc1ccco1	6	9	i	-3	-3	-159	-1	0
CC(C)CC(=O)c1c[nH]c(C(=O)NCc2ccc(F)cc2)c1	-4	7	i	3	1	24	-1	-2
Oc1c(CN2CCOCC2)ccc(CN2CCOCC2)c1O	.	.	.	0	3	-1	.	-6
COc1ccc(NC(=O)CSc2nnc(CN3CCOCC3)n2-c2ccccc2)cc1Cl	-3	0	i	6	1	31	5	0
O=C(NCc1nc2ccccc2[nH]1)c1cccc(S(=O)(=O)N2CCOCC2)c1	5	-2	i	2	0	.	17	.
Fc1ccc(-c2nn3c(C4COc5ccccc5O4)nnc3s2)cc1 (stereo unspecified)	-6	-14	i	4	1	-14	0	-19
O=C(NC1CCCc2ccccc21)C1CCN(S(=O)(=O)N2CCCCCC2)CC1 (stereo unspecified)	3	-4	i	-4	-10	6	-1	-19
CCCCOc1ccccc1-c1ccccc1CN1[C@@H](C(C)C)COCCS1(=O)=O	.	.	.	-4	-12	40	.	1
Continuation:
SMILES	eIF4H inh	CSC inhib	Rce1 inhib	MT1-MMP act inh	MT1-MMP act inh RFP	Env fusion inh	PABP polyA inh	UUG fidelity	others
O=C(Nc1cccc(NC(=O)c2cccc(F)c2)n1)c1cccc(F)c1	-1	6	i	-4	-2	-14	-1	0
CCCc1ccc2oc(C(=O)N(Cc3ccncc3)CC3CCCO3)c(C)c2c1 (stereo unspecified)	-5	18	i	-13	-18	.	1	-4
CCOC(=O)c1cccc(NC(=O)CC2Oc3ccccc3NC2=O)c1 (stereo unspecified)	-9	-24	i	-2	1	16	0	-11
CC(C)c1cc(C(C)C)c(S(=O)(=O)N2CCNCC2)c(C(C)C)c1	.	5	i	-6	-1	-13	.	-8
C=C1CSc2nc3ccccc3c(=O)n21	-3	.	i	5	8	.	18	-12
CCN(CC(=O)NCc1cccs1)S(=O)(=O)c1ccc(F)cc1	.	-5	i	-2	2	-12	.	-19
O=C(CN1CCN(S(=O)(=O)N2CCOCC2)CC1)Nc1cc(Cl)cc(Cl)c1	-1	-6	i	2	-2	9	-3	-8
CCOc1ccc(-c2nn(-c3ccccc3)cc2/C=C2\SC(=S)N(Cc3ccco3)C2=O)cc1	1	-8	i	2	-2	.	1	.
Cc1cc(C)c2c3c(sc2n1)C(c1ccccc1)C(C#N)=C(N)O3 (stereo unspecified)	1	1	i	-15	-6	.	120*	.	eIF4H inh retest=29;PABP polyA inh retest=64*
Cc1c(Br)c([N+](=O)[O-])nn1CC(=O)Nc1sc2c(c1C(=O)OC(C)C)CCC(C)C2 (stereo unspecified)	-1	-6	i	2	3	4	-2	-16
CCCOc1ccc(N2C(=O)CC(N(Cc3ccccc3)N=O)C2=O)cc1 (stereo unspecified)	2	-5	i	0	0	1	7	6
CC1(C)CC(=O)c2c(O)cc(O)cc2O1	-1	-5	i	1	-3	-69	-9	.
C#CCOCCOCCOCCNc1nc(N2CCN(C(=O)[C@H]([C@@H](C)CC)n3cc([C@@H](N)Cc4ccc(O)cc4)nn3)CC2)nc(N2CCN(C(=O)[C@H]([C@@H](C)CC)n3cc([C@@H](N)CC(C)C)nn3)CC2)n1	1	-19	i	0	3	-40	13	5
Cc1ccccc1NC(=S)Nc1cccc([N+](=O)[O-])c1	-6	3	i	11	9	.	4	-15
CCOC(=O)CC(=O)Nc1cc2ccc(OC)c(OC)c2cc1C(=O)OCC	.	.	.	3	2	0	.	12
Cc1nc(-c2cccc3ccccc23)ccc1C(=O)O	10	-7	i	-4	-2	2	-2	-4
C[C@@H]1CN([C@H](C)CO)C(=O)CCCn2cc(nn2)CO[C@H]1CN(C)S(=O)(=O)c1cccs1	.	.	.	3	4	20	.	-11&-8
Nc1nonc1-n1nnc(C(=O)N/N=C/c2ccccc2F)c1CN1CCc2ccccc21	-1	-18	i	-1	4	-1	1	-14
Cc1ccc(S(=O)(=O)N2CCOCC2)cc1C(=O)Nc1cccc(S(=O)(=O)N2CCCC2)c1	-3	-9	i	1	0	-16	10	.
COc1ccc2nc(NC(=O)c3sc4nc(C)cc(C)c4c3N)sc2c1	0	.	i	4	6	-58	17	-14

Fetched by structure from the entries so far, 2 records:
SMILES	eIF4H inh	CSC inhib	Rce1 inhib	MT1-MMP act inh	MT1-MMP act inh RFP	Env fusion inh	PABP polyA inh	UUG fidelity	others
Cc1cc(C)c2c3c(sc2n1)C(c1ccccc1)C(C#N)=C(N)O3 (stereo unspecified)	1	1	i	-15	-6	.	120*	.	eIF4H inh retest=29;PABP polyA inh retest=64*
Cc1nc(-c2cccc3ccccc23)ccc1C(=O)O	10	-7	i	-4	-2	2	-2	-4
